ALR H2O2 inh: inhibitors of human sulfhydryl oxidase ALR; 290,000 compounds, 3.8% hits; P55789; AID 485317; purified ALR, DTT oxidation, H2O2 HRP-luminol luminescence; inhibition, % (no concentration beside the values);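 active = mean and each replicate at 75% or more; inconclusive = only one of the two met; inactive = neither met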;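 note: stock transfer was 7.5 nL into about 7.5 µL; 0% = neutral wells and 100% = wells with inactivated enzyme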
Target sequence (P55789 whole entry, looked up): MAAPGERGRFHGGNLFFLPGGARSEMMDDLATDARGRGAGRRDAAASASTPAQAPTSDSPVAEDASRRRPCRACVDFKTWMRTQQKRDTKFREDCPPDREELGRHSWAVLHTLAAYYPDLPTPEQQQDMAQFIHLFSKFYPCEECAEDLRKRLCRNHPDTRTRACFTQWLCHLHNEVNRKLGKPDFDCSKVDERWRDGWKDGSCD
AF4-AF9 inh: inhibitors of human MLL-AF4/AF9 interaction. P42568. AlphaScreen, biotin-AF4 peptide binding to FLAG-AF9. inhibition, % at 10 µM. 350,000 compounds, 0.47% hits. AID 651704;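 active = every replicate reaching a set inhibition limit, whatever the replicate mean, cut at about 25% in these data; inconclusive = mean inhibition reaches that limit but some replicates miss it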;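 note: 0% = plate neutral control median and 100% = total signal loss; the record names both 10 and 1 µM as test concentration; the first replicate is given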
HNF4A DNA FP: change in binding of human HNF4 alpha to DNA; AID 1224865; 360,000 compounds, 0.3% hits; P41235; HNF4a-FITC DNA binding, fluorescence polarization, 1 h; activity change, % at 10 µM; in the data active = activity change above about 30%, passing the limit was not always enough;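 note: controls were the assay level and a saturating level of protein; the project sought stronger binding though the title names inhibitors; some compounds called inactive have numbers as strong as hits; positive values seem to mean higher polarization but the record does not say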
Target sequence (P41235 whole entry, looked up): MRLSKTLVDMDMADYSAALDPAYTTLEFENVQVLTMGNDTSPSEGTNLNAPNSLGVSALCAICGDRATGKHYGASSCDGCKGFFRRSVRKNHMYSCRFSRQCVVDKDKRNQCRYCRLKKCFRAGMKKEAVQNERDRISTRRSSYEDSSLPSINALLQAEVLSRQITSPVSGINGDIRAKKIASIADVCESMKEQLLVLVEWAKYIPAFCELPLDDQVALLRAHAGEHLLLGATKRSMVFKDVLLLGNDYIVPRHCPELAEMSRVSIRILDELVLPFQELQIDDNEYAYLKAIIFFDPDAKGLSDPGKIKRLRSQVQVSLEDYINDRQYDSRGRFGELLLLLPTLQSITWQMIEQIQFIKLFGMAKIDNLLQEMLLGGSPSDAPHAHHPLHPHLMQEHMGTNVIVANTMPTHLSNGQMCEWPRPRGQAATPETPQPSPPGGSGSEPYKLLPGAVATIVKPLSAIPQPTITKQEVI
rRNA inh HTS: inhibitors of bacterial rRNA selective over humanized ribosomes | E. coli WT GFP vs humanized-ribosome RFP mutants, fluorescence, 24 h; stronger effect = lower value; DMSO median 0, no signal -100 | 350,000 compounds, 1.6% hits | GFP signal change (wild-type ribosome), % (test concentration not listed);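 active = significant combined selectivity score with lowered wild-type GFP, culture density cut under 30%, mutant RFP and density less affected; inactive = any of these conditions unmet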; note: one replicate is shown; some compounds called inactive have numbers as strong as hits
Vif A3G: inhibitors of Vif binding to APOBEC3G peptide, primary screen, biochemical, TR-FRET, GST-Vif 1-94, biotin-A3G peptide, dose response retest (AID 1117319) | TR-FRET GST-Vif / biotin-A3G peptide binding; higher % means a stronger effect; test concentration not given here; strong numbers were not always called active | one-dose inhibition, %; IC50 in µM for titrated hits | 260,000 compounds, 0.57% hits;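 active = above the screen mean plus three standard deviations and confirmed in dose response; inconclusive = results disagree or hit not tested in dose response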;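 note: Vif residues 1-94 fused to GST binding biotinylated APOBEC3G peptide 110-148; 0% = full assay without inhibitor and 100% = GST in place of GST-Vif; retest series ran down from 100 µM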
FGF22 binding: binders of recombinant human FGF22 by thermal shift. 340,000 compounds, 1.5% hits. Q9HCT0. calls only at 9.99 µM. SYPRO orange fluorescence; percent of sucrose octasulfate shift, DMSO zero;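 active = melting point raised past a set limit in the mean and every replicate; inconclusive = no clear call; three in four hits are not shown here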
Target sequence (Q9HCT0 whole entry, looked up): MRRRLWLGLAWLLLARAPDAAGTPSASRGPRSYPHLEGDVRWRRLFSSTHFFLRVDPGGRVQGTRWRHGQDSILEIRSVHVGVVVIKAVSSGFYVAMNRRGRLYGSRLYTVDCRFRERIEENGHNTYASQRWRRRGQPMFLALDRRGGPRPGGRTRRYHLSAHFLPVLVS
E coli growth: blocks Escherichia coli growth; OD600 absorbance (concentration not given with the values); 330,000 compounds, 0.21% hits; AID 1053175; OD600, 23 h; stronger effect = lower value;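 active = OD600 absorbance below the run mean of sample wells minus 3.6 SD, in any replicate, cut at about 0.56 in these data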;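 note: stock transfer was 300 nL into about 60 µL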
rRNA inh HTS OD600: also measured in rRNA inh HTS; calls as there; OD600 change, %; measured here: OD600 growth;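 optical density of the mix in the first replicate; 0 = DMSO median and -100 = no signal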
rRNA inh HTS RFP: also measured in rRNA inh HTS; calls as there; RFP signal change, %; measured here: RFP humanized mutant strains;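 first replicate; 0 = DMSO median and -100 = no signal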
Active calls of the source: *; i = inactive; ? = inconclusive; . = not tested or not shown; & = joins results of further samples.

ALR H2O2 inh | AF4-AF9 inh | HNF4A DNA FP | rRNA inh HTS | rRNA inh HTS OD600 | rRNA inh HTS RFP | Vif A3G | FGF22 binding | E coli growth | Structure
. | -0.8 | . | 2 | 7 | 2.4 | . | i | . | C[C@H](NC(=O)[C@@H]1[C@@H](CO)[C@@H]2Cn3c(cccc3=O)[C@@H]2N1Cc1ccncc1)c1ccccc1
-2 | . | 0.4 | . | . | . | ? | . | 0.69 | Cc1ccccc1C(=O)/C=C1/c2ccccc2CC(C)(C)N1C
6 | . | -2.3 | . | . | . | ? | . | 0.68 | Cc1nn(-c2ccc(F)cc2)c(Cl)c1/C=C(\CC(=O)O)c1nc2ccccc2s1
18 | 3.6 | -0.5 | 2 | -2 | -0.5 | 4% | i | 0.67 | CN(CC1CCCO1)S(=O)(=O)c1ccc(C(=O)Nc2nccs2)cc1 (configuration not stated)
11 | -1.0 | -1.6 | 1 | -4 | -0.6 | . | i | . | CCCN1Cc2cccc(C(=O)NCCc3ccccc3)c2C1=O
-7 | 6.5 | 1.4 | -4 | 0 | -1.0 | -1% | i | 0.73 | COc1ccccc1-n1c(CNC(=O)c2ccccc2)nnc1SCC(=O)Nc1nnc(C)s1
. | -1.6 | -3.3 | 14 | 4 | 0.3 | -7% | i | 0.69 | CC12CCC(C)(O1)C1C(=O)N(c3nccs3)C(=O)C12 (configuration not stated)
. | -0.6 | -6.0 | 5 | -3 | -0.4 | . | i | . | CC(C)CC1C(=O)N(Cc2cn(CCC3OCCCO3)nn2)CCS(=O)(=O)N1Cc1ccc(-c2ccc(Cl)cc2)cc1 (configuration not stated)
. | -2.6 | . | 2 | 1 | -1.4 | . | i | . | CO[C@H]1CN(C)C(=O)c2cc(NC(=O)c3ccccc3F)ccc2OC[C@@H](C)N(C)C[C@@H]1C
-1 | ? | 3.5 | 0 | -3 | 2.1 | -7% | i | 0.7 | Cc1ccsc1C(=O)C1CCCN(Cc2cn(C)nc2-c2ccccc2)C1 (configuration not stated)
-6 | 1.0 | -4.0 | . | . | . | -4% | i | 0.65 | COc1ccc(NC(=O)CN(C)CC(=O)c2c(C)[nH]c3ccccc23)cc1
. | -1.6 | -5.7 | 3 | 3 | 2.0 | . | i | . | COC(=O)[C@@]12C[C@@H](CC(=O)NCC3CCCCC3)C(=O)N(Cc3ccccc3)C1=CCC(C)(C)C2
-4 | . | -1.1 | . | . | . | 10% | . | 0.69 | Cn1c(Cl)c(C(=O)Nc2ccccc2)c2ccccc21
3 | . | 0.0 | . | . | . | -2% | . | 0.67 | C=C1N(CCCCCC(=O)O)C(=O)OC12CCCCC2
-8 | . | 1.0 | . | . | . | 2% | . | 0.66 | Cc1cc(NC(=O)CCC(=O)N(c2ccc(F)cc2)C(C(=O)NC2CCCC2)c2ccncc2)no1 (configuration not stated)
2 | 0.8 | -13 | -3 | -21 | -15 | . | i | . | CCCCN1CC(=O)N2[C@H]3c4ccc(OC)cc4OC[C@@H]3[C@H](c3ccccc3)[C@]2(C)C1=O
. | -2.9 | . | 4 | 6 | 0.5 | . | i | . | O=C(O)C[C@@H]1C=C[C@@H](NC(=O)Nc2cc(F)ccc2F)[C@H](CO)O1
4 | 0.7 | 4.4 | 19 | 13 | 5.4 | . | i | 0.69 | CCn1nc(NS(=O)(=O)c2ccccc2)c2cc3ccc(C)cc3nc21
-4 | 0.5 | -2.6 | 10 | 1 | -1.5 | 20% | i | 0.7 | Cc1n[nH]c(C)c1CNCc1c(C(=O)N2CCCCCCC2)nc2ccc(Cl)cn12
-7 | 12 | -4.0 | 5 | 9 | -0.5 | 6% | i | 0.7 | COC(=O)C1CCN(C(=O)COC(=O)CNS(=O)(=O)c2ccc(SC)c([N+](=O)[O-])c2)CC1
-4 | -2.3 | -1.3 | 17 | 11 | 1.0 | -34% | i | 0.68 | COc1cnc(-c2ccccc2)nc1Sc1ccccc1
. | -0.5 | 1.7 | 16 | 18 | -2.5 | . | i | 0.68 | O=c1[nH]c(=S)[nH]c2c1CN(Cc1ccc(F)cc1)CC2
. | -2.2 | 3.4 | -1 | 5 | -1.4 | . | i | 0.66 | COc1ccc(C(=O)Nc2cc(C)c(NC(=O)c3ccccc3OC)cn2)cc1
. | -2.7 | -0.9 | 1 | 15 | -2.9 | -4% | i | 0.7 | CC[C@@H]1C(c2ccccc2)=NN(c2ccc(Br)cc2)[C@H]1C(=O)N1CCOC1=O
2 | 2.0 | -0.6 | -5 | -13 | 1.3 | 7% | i | 0.71 | CC(CC(=O)NCc1ccco1)S(=O)(=O)c1ccc2c(c1)CCN2C(=O)C1CC1 (configuration not stated)
-3 | 1.1 | 2.6 | 2 | 2 | 2.9 | -1% | i | 0.69 | Oc1oc(-c2ccccc2Br)nc1C=Nc1ccc(Br)cn1
-1 | -2.6 | 1.1 | 3 | 11 | 1.1 | -15% | i | 0.69 | CCCc1nc2ccccc2c(=O)n1CC(=O)c1ccc(OC)cc1
2 | 3.1 | 0.2 | -2 | -3 | 4.1 | 10% | i | 0.67 | CCc1noc(C)c1C(=O)N1CCCSC1=Nc1ccccc1Cl
-1 | . | -1.5 | . | . | . | 0% | . | 0.74 | CCOC(=O)c1cc(-c2ccc(C)cc2)n(CCC(=O)NCCN(C)C)c1C
-25 | 1.2 | -0.8 | -37 | -47 | -5.5 | 5% | . | 0.62 | CC1(C)Oc2ccc3ccc(=O)oc3c2/C(=C/Nc2cccc(O)c2)C1=O
-7 | . | -2.5 | . | . | . | 5% | . | 0.74 | CCCCN(CCCC)C(=O)CSc1nnc(-c2cc(OC)c(OC)c(OC)c2)o1
. | -7.1 | . | 1 | -5 | -3.7 | . | i | . | Cc1ccccc1-c1ccc([C@H]2[C@H]3CN(C(=O)Cc4ccccn4)CC(=O)N3[C@H]2CO)cc1
. | 3.7 | 1.2 | 11 | 14 | 0.9 | -1% | i | 0.62 | O=C(CCNC(=O)c1ccccc1Cl)NCC1COc2ccccc2O1 (configuration not stated)
35 | 0.1 | 1.7 | 5 | 3 | -0.9 | 4% | i | 0.68 | CC1(C)CC(NC(=O)Nc2ccc([N+](=O)[O-])cc2)CC(C)(C)N1
. | 0.0 | . | 5 | 4 | -0.4 | . | i | . | Cc1noc(C)c1NC(=O)N(C)C[C@H]1Oc2ccc(NC(=O)c3ccncc3)cc2CC(=O)N([C@@H](C)CO)C[C@@H]1C
. | 3.4 | . | -3 | -24 | -1.9 | . | i | . | CCCC#Cc1ccc2c(c1)O[C@H](CN(C)C(=O)C1CCC1)[C@@H](C)CN([C@H](C)CO)S2(=O)=O
9 | 39* | -5.4 | 15 | 16 | 0.4 | 5% | i | 0.76 | Cc1ccc(NC(=O)N(CCCN2CCOCC2)Cc2cccnc2)cc1C
56 | . | 0.3 | . | . | . | 30% | . | 0.66 | CCOC(=O)N1CCN(c2nc(-c3ccc(F)cc3)cs2)CC1
. | 0.4 | 5.2 | -7 | 2 | 0.7 | . | i | . | C/C(=N\NC(=O)Cc1csc(N2CCOCC2)n1)c1ccc(Cl)c(Cl)c1
. | -0.4 | -6.1 | -1 | 5 | 0.7 | . | i | . | CCOC(=O)c1ccc(NC(=O)c2ncn3c2C(=O)NC[C@H]3C)cc1
. | -0.4 | . | 2 | 1 | -0.7 | . | i | . | C[C@@H]1CN([C@H](C)CO)C(=O)Cc2cc(NC(=O)Cn3cnnn3)ccc2O[C@H]1CN(C)S(=O)(=O)c1cn(C)cn1
. | -4.3 | . | 6 | 7 | 2.1 | . | i | . | COCC(=O)N(C)C[C@@H]1Oc2ncc(C#CC3(O)CCCC3)cc2C(=O)N([C@H](C)CO)C[C@@H]1C
1 | 5.6 | -4.6 | 13 | 10 | 3.6 | 74% | i | 0.73 | COC(=O)CSc1nnc(CNC(=O)Cc2ccccc2)n1C
. | -2.6 | . | 3 | 7 | -0.6 | . | i | . | COc1ccc(S(=O)(=O)N(C)C[C@@H]2OCCCC[C@H](C)Oc3ccc(NS(=O)(=O)c4ccc(Cl)cc4)cc3C(=O)N([C@H](C)CO)C[C@H]2C)cc1
41 | . | 0.5 | . | . | . | . | . | 0.67 | S=C(NNc1ccc2ccccc2c1)NC1CCCCC1
-3 | -0.9 | 10 | -19 | -50 | -2.0 | 4% | i | 0.7 | Cc1cccc(N2CCN(C(=O)CCCn3c(=O)c4cccn4c4cccnc43)CC2)c1C
56 | -1.8 | -3.2 | -6 | -10 | -2.3 | -4% | i | 0.69 | Nc1nnc(C(=O)c2ccccc2N)s1
. | . | -4.1 | . | . | . | -6% | . | 0.69 | CCn1c(SCC(=O)OCC(=O)N2c3ccccc3NC(=O)C2(C)C)nnc1-c1ccco1
-1 | -32 | 1.4 | 2 | 8 | -0.6 | -4% | i | 0.68 | CC1C(=O)N2CCCc3cc(S(=O)(=O)N4CCCCC4)cc1c32 (configuration not stated)
-3 | 1.2 | 1.4 | 1 | 2 | 1.4 | ? | i | 0.71 | O=C(NCc1cccs1)C(Cc1ccccc1)n1cccc1 (configuration not stated)
-4 | -1.4 | -1.4 | -1 | 3 | -0.7 | 4% | i | 0.65 | COC(=O)c1ccc(-n2ccnc2)cc1
-2 | 4.7 | -4.2 | 26 | 27 | 2.3 | -18% | i | . | N#Cc1cc2c(=O)n3ccccc3nc2n(-c2ccc(Cl)cc2)c1=O
1 | . | 5.2 | . | . | . | 5% | . | 0.74 | Cc1ccc(NC(=S)NCC2CCCO2)cc1 (configuration not stated)
. | . | 52* | . | . | . | -2% | . | 0.7 | COc1cc(C(=O)N2CCC(NC(=O)C(Cc3ccc(C(C)C)cc3)NC(C)=O)CC2)cc(OC)c1OC (configuration not stated)
10 | . | 1.5 | . | . | . | 5% | . | 0.67 | Cn1nnnc1SCc1nc2ccccc2s1
. | 4.0 | . | 1 | 2 | -1.8 | . | i | . | O=C(N[C@@H]1CC[C@H](CCn2cc(-c3cccnc3)nn2)O[C@H]1CO)c1ccccc1F
0 | 1.1 | 0.2 | 6 | 9 | 0.4 | -6% | i | 0.7 | CCN(C(=O)CSc1nnc(-c2c[nH]c3ccccc23)n1C1CC1)C1CCS(=O)(=O)C1 (configuration not stated)
-1 | -7.4 | 6.3 | -15 | -33 | -2.8 | 1% | i | 0.73 | Cc1cc(C(=O)COC(=O)c2ccc(O)cc2)c(C)n1CC1CCCO1 (configuration not stated)
11 | . | 2.2 | . | . | . | 4%&2% | . | 0.68 | O=C(CSc1nnc(Cc2cccs2)n1C1CCCCC1)N1CCCc2ccccc21
. | 1.6 | . | 4 | 16 | -1.4 | . | i | . | COc1ccc2c3c(n(C)c2c1)[C@H](CO)N(C(=O)c1cccnc1)CC31CCN(C)CC1
-10 | . | 1.4 | . | . | . | -3% | . | 0.72 | CSc1nc2ccc(S(=O)(=O)N3CCCC3)cc2s1
. | 0.2 | . | -2 | 4 | 0.6 | . | i | . | C[C@@H]1CN([C@H](C)CO)C(=O)c2ccccc2-c2ccccc2CO[C@@H]1CN(C)C(=O)N[C@H](C)c1ccccc1

Filtered by structure: those above with a nitro group on carbon.
ALR H2O2 inh | AF4-AF9 inh | HNF4A DNA FP | rRNA inh HTS | rRNA inh HTS OD600 | rRNA inh HTS RFP | Vif A3G | FGF22 binding | E coli growth | Structure
-7 | 12 | -4.0 | 5 | 9 | -0.5 | 6% | i | 0.7 | COC(=O)C1CCN(C(=O)COC(=O)CNS(=O)(=O)c2ccc(SC)c([N+](=O)[O-])c2)CC1
35 | 0.1 | 1.7 | 5 | 3 | -0.9 | 4% | i | 0.68 | CC1(C)CC(NC(=O)Nc2ccc([N+](=O)[O-])cc2)CC(C)(C)N1

Compound activity deposited in PubChem BioAssay by several laboratories.

Not all compounds are listed; the hit share may differ from the screen's.
